BmaI1 – BmaI1 acyl-homoserine lactone synthase inhibition – biochemical, fluorescence intensity, with counterscreen (AID 720554); BmaI1 enzyme assay, fluorescence intensity; active compounds read high; test concentration not given here; a few actives read low; strong numbers were not always called active; inhibition, %; 12,000 compounds, 0.4% hits;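 active = both replicates within 2 robust z-scores of the inhibited control and a quiet counterscreen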;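 note: 0% = uninhibited enzyme and 100% = inhibited control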
BmaI1 counterscreen – also measured in BmaI1; calls as there; inhibition, %; measured here: counterscreen; design of the counterscreen not given here;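 first of two replicates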
Active calls of the source: *. An excerpt (hit frequency here may not be typical).

> O=C(OC1C[C@@H]2CC3C[C@H](C1)N2CC3=O)c1c[nH]c2ccccc12 (stereo partly drawn)
- BmaI1: 58
- BmaI1 counterscreen: 13

> CC(C)(C(=O)c1cccnc1)c1cccnc1
- BmaI1: 10
- BmaI1 counterscreen: 18

> CN(CCOc1ccc(NS(C)(=O)=O)cc1)CCc1ccc(NS(C)(=O)=O)cc1
- BmaI1: 8
- BmaI1 counterscreen: -2

> COc1cc(C)nc(-n2nc(C)cc2OC)n1
- BmaI1: -6
- BmaI1 counterscreen: 7

> O=C(c1ccccc1)c1ccc2n1CCC2C(=O)O (stereo not drawn)
- BmaI1: 5
- BmaI1 counterscreen: 9

> C#C[C@]1(O)CC[C@H]2[C@@H]3CCC4=CC(=O)CC[C@@H]4[C@H]3CC[C@@]21CC
- BmaI1: 10
- BmaI1 counterscreen: 13

> CN(C)CCC[C@@]1(c2ccc(F)cc2)OCc2cc(C#N)ccc21
- BmaI1: 3
- BmaI1 counterscreen: 6

> C[C@@H]1C[C@H]2[C@@H]3C[C@H](F)C4=CC(=O)C(Cl)=C[C@]4(C)[C@@]3(F)[C@@H](O)C[C@]2(C)[C@@]1(O)C(=O)CO
- BmaI1: -1
- BmaI1 counterscreen: 3

> CN1CCC(=C2c3ccccc3CC(=O)c3sccc32)CC1
- BmaI1: 16
- BmaI1 counterscreen: 26

> CN1CCN(c2c(F)cc3c(=O)c(C(=O)O)cn4c3c2SCC4)CC1
- BmaI1: -4
- BmaI1 counterscreen: -16

> CCN1CC(CCN2CCOCC2)C(c2ccccc2)(c2ccccc2)C1=O (stereo not drawn)
- BmaI1: 4
- BmaI1 counterscreen: 14

> O=C(NCCN1CCOCC1)c1ccc(Cl)cc1
- BmaI1: -9
- BmaI1 counterscreen: -2

> CC(=O)O[C@@]12CO[C@@H]1C[C@H](O)[C@@]1(C)C(=O)[C@H](O)C3=C(C)[C@@H](OC(=O)[C@H](O)[C@@H](NC(=O)OC(C)(C)C)c4ccccc4)C[C@](O)([C@@H](OC(=O)c4ccccc4)[C@H]21)C3(C)C
- BmaI1: -6
- BmaI1 counterscreen: 0

Some of the entries so far, in CSV form:
compound,BmaI1,BmaI1 counterscreen
C#C[C@]1(O)CC[C@H]2[C@@H]3CCC4=CC(=O)CC[C@@H]4[C@H]3CC[C@@]21CC,10,13
CN(C)CCC[C@@]1(c2ccc(F)cc2)OCc2cc(C#N)ccc21,3,6
C[C@@H]1C[C@H]2[C@@H]3C[C@H](F)C4=CC(=O)C(Cl)=C[C@]4(C)[C@@]3(F)[C@@H](O)C[C@]2(C)[C@@]1(O)C(=O)CO,-1,3
CN1CCC(=C2c3ccccc3CC(=O)c3sccc32)CC1,16,26

Compound activity (PubChem BioAssay)
